Assay outcomes as filed in PubChem BioAssay.
Rango complex inh – Rango-importin beta binding inhibition | Rango CFP/YFP FRET sensor + importin beta, 45 min | 0.031% of 340,000 active | AID 540263 | Potency, µM (doses to about 92.2 µM), without a hit: top-dose inhibition of complex formation | Q14974; active = rising FRET ratio curve, often small or poorly fitted; inconclusive = mostly compound fluorescence or quenching in the first reads; inactive = flat curves in all reads;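 also: potency is read from the fitted curve at half-maximal effect; 0% = DMSO wells and 100% = buffer wells lacking importin beta; nearly all actives have a fitted effect of over 15% in size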
Target sequence (Q14974 whole entry, looked up): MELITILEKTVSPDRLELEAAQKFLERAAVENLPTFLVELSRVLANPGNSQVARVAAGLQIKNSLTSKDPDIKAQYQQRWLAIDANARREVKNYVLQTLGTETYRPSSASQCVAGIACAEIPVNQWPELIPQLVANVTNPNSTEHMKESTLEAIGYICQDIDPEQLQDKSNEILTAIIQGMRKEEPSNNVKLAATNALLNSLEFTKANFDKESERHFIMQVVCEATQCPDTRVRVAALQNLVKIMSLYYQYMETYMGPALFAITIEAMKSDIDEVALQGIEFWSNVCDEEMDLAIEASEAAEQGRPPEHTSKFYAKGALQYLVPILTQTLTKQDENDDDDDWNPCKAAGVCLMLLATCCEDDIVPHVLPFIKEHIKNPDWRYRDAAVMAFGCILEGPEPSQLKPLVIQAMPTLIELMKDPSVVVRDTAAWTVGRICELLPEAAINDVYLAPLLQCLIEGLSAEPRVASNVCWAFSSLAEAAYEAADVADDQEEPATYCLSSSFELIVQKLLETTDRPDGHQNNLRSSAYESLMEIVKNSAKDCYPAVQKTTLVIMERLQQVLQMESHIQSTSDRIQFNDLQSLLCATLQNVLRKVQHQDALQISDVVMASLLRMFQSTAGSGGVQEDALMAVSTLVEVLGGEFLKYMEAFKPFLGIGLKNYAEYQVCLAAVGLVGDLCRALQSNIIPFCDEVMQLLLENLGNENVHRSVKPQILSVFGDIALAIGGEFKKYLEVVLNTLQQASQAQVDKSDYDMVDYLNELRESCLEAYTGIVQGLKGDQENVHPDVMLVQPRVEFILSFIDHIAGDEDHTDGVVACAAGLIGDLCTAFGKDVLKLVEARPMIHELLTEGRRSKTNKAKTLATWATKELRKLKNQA
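Inhibition scored from the CFP 486 nm/YFP 530 nm FRET ratio 45 min after adding 0.125 microM importin beta to 50 nM Rango biosensor preincubated 5 min with compound (room temperature, PBS with DTT, Tween-20, BSA). No-importin wells as positive control.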
GLA inh pH 4.5 – blocks human alpha-galactosidase A at pH 4.5 | P06280 | purified enzyme, 4-MU-alpha-Gal fluorescence, pH 4.5 | activity change, negative = inhibition, % at 105 µM | 230,000 tested, under 10 active; inconclusive = small, poorly fitted or top-dose-only inhibition, or a rising curve; inactive = flat fitted curve, though single readings scatter; no compound was filed as active;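 also: 0% = full activity with enzyme and -100% = basal without enzyme; dose as in the result columns while the protocol names 77 µM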
miR-21 reporter – miR-21 reporter, rising signal | Potency, µM (titrated, usually from 38.3 µM), for inactives: at the highest dose reporter change, positive = more light | 340,000 tested, under 10 active | HeLa miR-21 FLuc reporter, luciferase, 48 h; active = well fitted rising curve with a large enough effect; inconclusive = small, poorly fitted or top-dose-only effect; inactive = no such curve, though single readings can be large or run the other way;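 also: % of control where 0% means no effect; miR-21 action dims this reporter so a rising signal means less miR-21 action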
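Compounds were titrated across several concentrations (up to approximately 40 uM) and incubated 48 hours with HeLa miR-21-FLuc reporter cells (miR-21 target sequence downstream of FLuc, endogenous miR-21). Readout was firefly luciferase luminescence after lytic detection reagent.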
Rango release inh – inhibition of RanGTP-driven Rango-importin beta dissociation. O95149+P62826. Biochemical FRET Rango-importin beta, RanGTP-induced dissociation. Potency, µM (top dose mostly 46.1 µM), for inactives: at the top dose activity change, negative = inhibition. 0.071% of 340,000 active; active means falling FRET ratio curve, often poorly fitted, with flat reads before Ran was added; inconclusive means other falling curves, or compound fluorescence or quenching; inactive means flat or rising ratio curve;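 also: potency is read from the fitted curve at half-maximal effect; % of control where 0% means no effect; nearly all actives have a fitted effect of over 45% in size; -100% = wells without RanGTP and RCC1; the record marks most hits as doubtful in a second field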
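Rango (0.1 uM)–importin beta (0.25 uM) complex; RanGTP-RCC1 trigger; 45 min RT; CFP/YFP FRET read.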
* = called active by the depositor; ? = inconclusive; . = no result given; [ ] = remark or other dose. The list is partial (hit frequency here may not be typical).

SMILES	Rango complex inh	GLA inh pH 4.5	miR-21 reporter	Rango release inh
CN(CCCNS(=O)(=O)c1cccc2cccnc12)Cc1ccccc1	0.4%	-10	-8%	-8%
Cn1c(SCC(=O)N2CCN(c3ccccc3)CC2)nnc1-c1ccco1	3.5%	8	-1%	4%
COc1ccc(/C=C/CN2CCC(n3nccc3NC(=O)C3CC3)CC2)cc1	-1.4%	.	-11%	4%
O=C(O)CN(c1ccc2c(c1)OCCO2)S(=O)(=O)c1ccccc1	0.0%	-3	-1%	9%
O=C(NCCN1CCOCC1)c1cc(Sc2ccc(F)cc2F)nc2ccccc12	-2.1%	-3	3%	7%
COc1cccc(/C=C/C(=O)Nc2ccc3[nH]c(=O)[nH]c3c2)c1	?	2	-19%	26%
CCOc1ccc(N(C(C)C(=O)NCc2ccco2)S(C)(=O)=O)cc1 (centres undefined)	1.9%	1	-1%	3%
CC(C)Cc1nc2n[nH]c(N)c2c2c1CCC2	-2.6%	-2	-26%	-9%
Cc1ccc(/C=C(\C#N)C(=O)Nc2ccccn2)o1	?	5	-45%	-8%
N#Cc1c(NC(=O)c2ccncc2)sc2c1CCC2	-1.1%	-6	-27%	-13%
COc1ccc(S(=O)(=O)N2CC(=O)Nc3ccccc32)cc1C	3.6%	.	-1%	-5%
O=C(CCCN=C1NS(=O)(=O)c2ccccc21)OCC(=O)c1ccccc1	0.0%	.	.	7%
N#CC1=C2SCN(Cc3ccccc3)CN2C(=O)CC1c1ccc2c(c1)OCO2 (centres undefined)	?	2	-2%	-21%
CCOC(=O)c1[nH]c(C)c(C(=O)OCC(=O)NCc2ccc(OC)c(OC)c2)c1C	-1.8%	.	.	-15%
S=C1NC(c2ccccc2)=NCN1c1ccccc1	0.4%	3	-47%	-3%
N#Cc1ccccc1Cn1c(=O)n(C2CCCC2)c(=O)c2ccccc21	0.2%	-3	-5%	-10%
CCOC(=O)c1sc(NC(=O)Cn2nnc3sc4c(c3c2=O)CCC(C(C)(C)C)C4)nc1C (centres undefined)	-0.2%	-12	-14%	-8%
Cc1cc(C)nc(NC(=NCCc2c[nH]c3ccccc23)NC(=O)C(C)(C)C)n1	-8.6%	?	0%	12%
CN(C(=O)/C=C/c1ccc2c(c1)OCO2)c1ccccc1	2.9%	0[21.1 µM]	-33%	-20%
Cc1cc(C)c(S(=O)(=O)Nc2ccccc2C(=O)N2CCOCC2)c(C)c1	-0.7%	.	0%	-5%
CC(C)(C)NC(=S)NCCc1ccccc1	-0.4%	-2	-31%	2%
Cc1ccc(C)c(S(=O)(=O)N2CCN(C(=O)Cn3[nH]c(=O)c4ccccc4c3=O)CC2)c1	0.5%	.	.	-2%
COc1ccc(OC)c(S(=O)(=O)NC2CCCCC2)c1	0.3%	5	0%	21%
Cc1cc(C)c(S(=O)(=O)/N=C2/C=C(SCC(=O)O)C(=O)c3ccccc32)cc1C	-0.4%	9	15%	-15%
Cc1ccc(CNc2ccc(CNc3ncn[nH]3)cc2)cc1	-3.9%	-3	-21%	4%
COc1cc(C)c(CNc2cccc(C)c2)cc1C	-0.8%	-4	-6%	7%
Cc1cc(C)n2nc(C(=O)Nc3nccs3)nc2n1	0.7%	7	-34%	1%
CCCN=C1N(C)C[C@@H]2[C@@H]3C(=O)N(C)C(=O)[C@@H]3[C@](Cc3ccccc3)(C(=O)OC)N12	0.9%	.	.	34%
COC(=O)C(Cc1cnc(Cl)s1)(C(=O)OC)c1ccccc1[N+](=O)[O-]	0.2%	4	0%	-3%
Cc1nnc(NC(=O)c2cccc(F)c2)s1	-3.8%	6	-12%	0%
CCOC(=O)n1c(=O)n(C)c2ccc(Br)cc21	-4.7%	0	-2%	-1%
O=C1/C(=C\c2ccc(O)c(O)c2)N=C2CCCCCN12	?	-15	-60%	-27%
O=C(O)CCCC(=O)Nc1cccc(C(=O)Nc2ccccc2C(=O)O)c1	1.2%	9	2%	5%
O=C1CSC(=Nc2cccc([N+](=O)[O-])c2)N1	5.6%	.	0%	-10%
Cc1sc2nc(CSCC(=O)N(CCC#N)c3ccccc3F)[nH]c(=O)c2c1C	-0.5%	.	.	-1%
COc1ccc(S(=O)(=O)N2CCOCC2)cc1NC(=O)CN1CCCCCC1	2.0%	-8	1%	20%

Reformatted: entries from further up
Every second line gives: Rango complex inh | GLA inh pH 4.5 | miR-21 reporter | Rango release inh
Cc1cc(C)n2nc(C(=O)Nc3nccs3)nc2n1
 : 0.7% | 7 | -34% | 1%
CCCN=C1N(C)C[C@@H]2[C@@H]3C(=O)N(C)C(=O)[C@@H]3[C@](Cc3ccccc3)(C(=O)OC)N12
 : 0.9% | . | . | 34%
COC(=O)C(Cc1cnc(Cl)s1)(C(=O)OC)c1ccccc1[N+](=O)[O-]
 : 0.2% | 4 | 0% | -3%
Cc1nnc(NC(=O)c2cccc(F)c2)s1
 : -3.8% | 6 | -12% | 0%

More compounds.
SMILES	Rango complex inh	GLA inh pH 4.5	miR-21 reporter	Rango release inh
CC[C@@]12C(=O)N(c3cccc(C)c3)C(=O)N1[C@H](c1ccc(OC)cc1)[C@@H]1C(=O)N(C(C)(C)C)C(=O)[C@@H]12	2.1%	.	-4%	13%
O=C(CCn1c(=S)oc2ccccc21)Nc1cc([N+](=O)[O-])ccc1F	-0.1%	.	2%	20%
O=C(OCc1cc2ccccc2[nH]c1=O)c1ccncc1	0.4%	2	-15%	4%
Cc1cccc(N2CCN(C(=O)c3cc(S(=O)(=O)N4CCOCC4)cn3C)CC2)c1C	-0.5%	.	0%	-10%
c1ccc2c(CCNc3ncnc4nc[nH]c34)c[nH]c2c1	1.9%	0	9%	0%
O=C(O)Cc1cn(Cc2cccc(Cl)c2)c2ccccc12	-2.6%	-8	-1%	-7%
COCCN1C2=C(C(=O)CC(C)(C)C2)C(c2ccc(OC)c(OC)c2)C2=C1CC(C)(C)CC2=O	?	.	1%	-28%
COC(=O)c1ccccc1NC(=O)CN1C(=O)c2ccccc2C1=O	-4.4%	.	.	12%
COCCNC(=O)C12CC3CC(C1)CC(c1ccccc1)(C3)C2	6.2%	-7	-1%	12%
Cc1nnc(-c2cnn(C)c2N)n1Cc1ccc2c(c1)OCO2	-0.9%	-9	-16%	-1%
CC1CCCC(C)N1CCCNC(=O)C1CCCN(c2ncnc3c2nc2n3CCCCC2)C1 (centres undefined)	6.7%	.	2%	9%
C[C@H](NC(=O)c1ccccc1Cl)C(=O)OCc1cn2cc(Cl)ccc2n1	-0.9%	.	.	3%

One compound at a time, from the list above. Order of screens: Rango complex inh	GLA inh pH 4.5	miR-21 reporter	Rango release inh
Record of COc1cc(C)c(CNc2cccc(C)c2)cc1C → -0.8%	-4	-6%	7%
Record of Cc1cc(C)n2nc(C(=O)Nc3nccs3)nc2n1 → 0.7%	7	-34%	1%

The list continues:
SMILES	Rango complex inh	GLA inh pH 4.5	miR-21 reporter	Rango release inh
COc1ccc(S(=O)(=O)N2CCN(C(=O)NCc3ccc(OC)c(OC)c3)CC2)cc1	-0.6%	.	-1%	-7%
O=C(Nc1cccc(S(=O)(=O)N2CCCCC2)c1)c1ccc2c(c1)OCO2	0.6%	2	14%	-9%
CC/C(=N\NC(=S)Nc1ccc(OC)cc1)c1ccc(OC(F)F)cc1	-0.8%	-2	8%	-28%
S=c1[nH]nc([C@@H]2C[C@H]2c2ccccc2)n1-c1ccccc1	-0.3%	3	-11%	-5%
O=c1cc(NCc2ccco2)[nH]c(=O)n1-c1ccc(Br)cc1	?	-2	-17%	-20%
CCN(CC)S(=O)(=O)c1ccc(NC(=O)CCC2CCCCC2)cc1	3.6%	-10	1%	29%
Cc1cc(S(=O)(=O)NC2CCCCC2)ccc1OCC(=O)NCC1CCCO1 (centres undefined)	1.2%	0	0%	6%
CN(C)C1CCN(C(=O)c2cccc(OC3CCN(S(=O)(=O)N(C)C)CC3)c2)C1 (centres undefined)	0.7%	.	-5%	0%
CCCOC(=O)/C(=C\c1ccc([N+](=O)[O-])o1)NC(=O)c1ccccc1	1.2%	-3	-7%	-20%
O=C1NCCCC1C(=O)N/N=C/c1ccc(Cl)cc1 (centres undefined)	3.1%	3	2%	-1%
COc1ccccc1-n1cnnc1SC1CCOC1=O (centres undefined)	2.0%	12	-8%	1%
Cc1sc(-n2c(C)cc(/C=C3\SC(=S)NC3=O)c2C)c(C#N)c1C	-2.4%	.	-20%	?
Cc1ccc(CSc2ncnc3c2cnn3Cc2ccccc2)cc1C	-0.5%	7	-3%	?
O=C(Nc1ccc2oc(=O)ccc2c1)c1ccc(-c2ccc(Cl)cc2)o1	-0.4%	0	-3%	-1%
CCOc1ccc(NC(=S)NN2C(C)CCCC2C)cc1 (centres undefined)	-0.5%	5	-2%	11%
CCCCN(C)C1=CC2=CC(=C(C#N)C#N)CCC2CC1 (centres undefined)	?	-12	-3%	?
Cc1ccc(NC(=O)c2ccc(F)cc2F)cc1	-0.9%	.	.	2%
CC[C@]1(C(=O)OC)[C@H]2C(=O)N(C)C(=O)[C@H]2[C@H]2CN=C(SCc3ccc(C#N)cc3)N21	0.2%	.	.	19%
COc1ccc(/C=C2\SC(=O)N(CCNC(=O)C3=COCCO3)C2=O)cc1	0.7%	.	.	11%
COC(=O)c1ccccc1C(=O)N1CCCC(CCC(=O)NCc2ccc(F)c(F)c2)C1 (centres undefined)	-0.5%	-5	-23%	0%
CC(=O)N1CCc2cc(S(=O)(=O)NCCC(=O)NCCc3ccccc3)ccc21	-0.4%	-5	5%	13%
O=C(Nc1ccc(Cl)c(C(F)(F)F)c1)[C@@H]1CC=C[C@@H]2CCN(Cc3ccccc3)C(=O)[C@@H]21	-0.1%	.	.	-14%
Cc1ccccc1C(=O)NC1CCN(CC(=O)NCc2ccc(F)cc2)CC1	-2.3%	2	2%	-6%
Cc1ccnc(NC(=O)c2ccc(Cl)c([N+](=O)[O-])c2)c1	-0.7%	-12	-21%	?
CCN(CC)C1CCN(C(=O)CCc2nnc(CCCCc3ccccc3)o2)C1 (centres undefined)	-1.0%	11	-8%	0%
CCC(NS(=O)(=O)c1ccc(C)cc1)C(=O)N1CCN(c2ccccn2)CC1 (centres undefined)	-0.5%	3	-2%	-4%
CCN(CC(=O)Nc1ccc2c(c1)OCCO2)Cc1cc(=O)n2ccsc2n1	-5.4%	3	-38%	-10%
CNC(=O)c1ccsc1NC(=O)c1ccc(Cl)s1	?	-6	-16%	-27%
CC(C)[C@H](NC(=O)[C@H](Cc1ccccc1)n1c(=O)[nH]c2ccccc2c1=O)C(=O)N[C@@H](Cc1ccccc1)C(=O)O	1.0%	.	0%	1%
COc1ccc(NC(=O)CSc2nnnn2C)cc1	-3.0%	0	-2%	1%
Cc1cccc(NC(=O)c2cc(NC(=O)C3CCCCC3C(=O)O)ccc2N2CCCCC2)c1 (centres undefined)	-3.4%	-25	-1%	-8%
CCc1cccc(C)c1Nc1nc2ccccc2n2cnnc12	?	.	1%	-18%
CSC1=C(C#N)C(c2ccc(C)cc2)C2=C(CCCC2=O)N1 (centres undefined)	2.6%	-4	-4%	11%
Cc1ccc(/C=N/NC(=O)CSc2nc3ccccc3c(=O)n2-c2ccccc2C)s1	0.1%	-7	-11%	-4%
O=C(c1ccc2nccnc2c1)N1CCCC(N2CCN(c3ccc(F)cc3)CC2)C1 (centres undefined)	-2.6%	.	0%	3%
CCCOC(=O)c1ccc(NC(=O)c2cc(=O)[nH]c3ccccc23)cc1	-1.7%	4	-4%	1%
Cc1[nH]c2ccccc2c1C(c1ccccn1)c1c(C)[nH]c2ccccc12	?	1	-5%	?
Cc1cc(O)c(/C=N/Nc2ccc(Cl)cc2)c(=O)o1	?	2	-5%	-17%
Cc1ccccc1SCc1noc(C(=O)NCC2CCCO2)c1C(=O)O (centres undefined)	6.4%	9	0%	-12%
CCC(C(=O)NCc1cccnc1)n1nc(C)n2c(cc3occc32)c1=O (centres undefined)	-2.0%	.	-2%	26%
O=C(Nc1ccc(Cl)cc1)Nc1cccc2nsnc12	?	-1	10%	?
O=S(=O)(Nc1nc2ccccc2nc1N1CCN(c2ccccc2)CC1)c1ccc(F)cc1	?	1	-21%	-7%
